High-throughput results deposited in PubChem by National Center for Advancing Translational Sciences (NCATS).
EPAC1 ag val: validation of human EPAC1 agonists | actives 1% (n = 16,000) | AID 1645883 | Potency, µM, for the others: max response, positive = active, actives largely listed as activators | O95398 | EPAC1 Rap1b BODIPY-GDP exchange, fluorescence; active = well fitted activation curve with a large enough effect; inconclusive = small, poorly fitted or top-dose-only effect; inactive = no such curve, though single readings can be large or run the other way;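 note: nearly all actives have a fitted effect of over 70% in size; series mostly up to about 76 or 150 µM; scaled to a cAMP control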
Target sequence (O95398 whole entry, looked up): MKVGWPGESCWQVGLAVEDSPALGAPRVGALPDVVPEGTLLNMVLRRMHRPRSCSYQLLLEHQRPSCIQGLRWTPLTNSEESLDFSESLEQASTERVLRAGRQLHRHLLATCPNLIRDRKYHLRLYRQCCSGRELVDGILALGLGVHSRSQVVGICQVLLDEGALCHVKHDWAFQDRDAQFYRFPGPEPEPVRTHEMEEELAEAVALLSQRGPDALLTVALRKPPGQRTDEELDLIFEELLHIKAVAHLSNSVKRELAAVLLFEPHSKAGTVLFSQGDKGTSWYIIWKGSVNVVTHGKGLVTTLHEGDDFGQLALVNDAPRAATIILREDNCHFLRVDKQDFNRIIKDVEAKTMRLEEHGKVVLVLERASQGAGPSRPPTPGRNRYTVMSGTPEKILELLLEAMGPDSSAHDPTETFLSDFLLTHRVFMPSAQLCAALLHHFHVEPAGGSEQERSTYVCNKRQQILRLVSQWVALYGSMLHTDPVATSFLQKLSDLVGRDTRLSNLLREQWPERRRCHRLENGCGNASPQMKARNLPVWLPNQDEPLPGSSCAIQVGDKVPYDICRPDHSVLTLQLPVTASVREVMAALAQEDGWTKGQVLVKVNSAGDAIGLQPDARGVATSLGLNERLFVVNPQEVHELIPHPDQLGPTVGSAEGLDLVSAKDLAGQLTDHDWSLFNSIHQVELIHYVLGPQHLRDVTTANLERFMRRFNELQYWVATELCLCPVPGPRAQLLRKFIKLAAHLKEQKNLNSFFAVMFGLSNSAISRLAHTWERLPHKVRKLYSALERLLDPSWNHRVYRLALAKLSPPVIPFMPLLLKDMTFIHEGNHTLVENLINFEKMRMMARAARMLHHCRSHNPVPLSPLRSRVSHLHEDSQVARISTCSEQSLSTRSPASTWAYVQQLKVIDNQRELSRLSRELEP
Numbers without * were called inactive; ? = inconclusive; & = joins results of further samples; ! = repeats disagree; [ ] = another dose, or the depositor's remark. % is set by controls: 0 for no effect and ±100 for the full control effect; potency is the fitted concentration of half-maximal effect. Not all compounds are listed. The share of hits here may be higher or lower than overall.

# | EPAC1 ag val | structure
1 | -72%[inhibitor] | COc1ccccc1CN1CC2(CCN(C(=O)c3ccncc3)CC2)C1
2 | ? | Clc1ccc(C(c2ccccc2Cl)C(Cl)Cl)cc1 (stereo unspecified)
3 | -49%[inhibitor] | Cn1cccc1C(=O)N1CCC2(CC1)CCN(c1ccccc1)CC2
4 | ? | CN(C)CCOC(c1ccccc1)c1ccccc1
5 | -2%&-8%&-6% | Cc1cccc(C#Cc2ccccc2)n1
6 | -107%&-22%[inhibitor] | CC(=O)OCC(=O)NCCCOc1cccc(CN2CCCCC2)c1
7 | 6% | O=[N+]([O-])c1cccc2c[nH]nc12
8 | -1%&-19% | N[C@@H](Cc1ccc(O)c(O)c1)C(=O)O
9 | -22% | O=C(O)CC(O)C(=O)O (stereo unspecified)
10 | -5% | O=C(NCCN1CCOCC1)c1cnn(-c2ncc3c(n2)-c2ccccc2CC3)c1C1CC1
11 | 2% | CC1OC(OCC2OC(Oc3c(-c4ccc(O)c(O)c4)oc4cc(O)cc(O)c4c3=O)C(O)C(O)C2O)C(O)C(O)C1O (stereo unspecified)
12 | -31%[inhibitor] | N#CCCn1c(=O)cnc2cnc(N3CCNCC3)nc21
13 | -27% | O=C1C[C@H]2C=CCc3cccc(c32)CN1Cc1ccccc1
14 | 11% | CCCC(=O)O[C@]1(C(=O)CO)CC[C@H]2[C@@H]3CCC4=CC(=O)CC[C@]4(C)[C@H]3[C@@H](O)C[C@@]21C
15 | -12% | Cc1nc(C)c(CC(=O)N2CCOc3ccc(CN4CCN(c5ccccn5)CC4)cc3C2)s1
16 | -35%[inhibitor] | CNCc1ccccc1
17 | -4% | OCc1nc2ccc(Cl)cc2[nH]1
18 | -13% | COc1ccc(CN2CCOc3c(cc(-c4cccc(OC)n4)cc3OC)C2)c(O)c1
19 | 24% | CN(C)c1ccc(/C=C/c2c3ccccc3nc3ccccc23)cc1
20 | 4% | C[C@@H](NCc1cc(Br)cc2[nH]c(=O)c(=O)[nH]c12)P(=O)(O)O
21 | 26%&3% | C1CCN2C[C@H]3C[C@H](CN4CCCCC34)C2C1 (stereo partly specified)
22 | -1% | CN(C)c1ncc2nc(CCc3ccccc3)c(=O)n(CCc3ccccc3)c2n1
23 | -4% | O=C(NCC1CCC2(CCN(Cc3cc4ccccc4o3)CC2)O1)c1ccccc1 (stereo unspecified)
24 | -14% | COc1ccc(OC)c(C(=O)N2CCOc3ccc(C(C)(O)CN(C)C)cc3C2)c1 (stereo unspecified)

By substructure: those above containing four or more nitrogen atoms
# | EPAC1 ag val | structure
10 | -5% | O=C(NCCN1CCOCC1)c1cnn(-c2ncc3c(n2)-c2ccccc2CC3)c1C1CC1
12 | -31%[inhibitor] | N#CCCn1c(=O)cnc2cnc(N3CCNCC3)nc21
15 | -12% | Cc1nc(C)c(CC(=O)N2CCOc3ccc(CN4CCN(c5ccccn5)CC4)cc3C2)s1
22 | -1% | CN(C)c1ncc2nc(CCc3ccccc3)c(=O)n(CCc3ccccc3)c2n1

(listing goes on)
# | EPAC1 ag val | structure
25 | -12% | CCCCC/C=C/C=C1/C(=O)C=C[C@@H]1C/C=C\CCCC(=O)O
26 | -65%[inhibitor] | FC(F)(F)c1cc(CN2CCC3(CCNCC3)CC2)cc(C(F)(F)F)c1
27 | ? | Cc1ccccc1-c1cncnc1N(C)Cc1ccco1
28 | -7% | COc1ccccc1CNc1cc(-c2ccc(C(=O)N(C)C)cc2)ncn1
29 | -25% | CN(C)c1nc(-c2ccccc2C(F)(F)F)nc2ccccc12
30 | -8% | Cc1oc(-c2ccccc2NC(=O)c2cccnc2)nc1CNC(=O)c1ccc(N(C)C)cc1
31 | ? | COc1ccc(-c2nc3cnc(N4CCN(C)CC4)nc3n(Cc3cccs3)c2=O)cc1
32 | 1% | CCCCOC(=O)C(=O)Nc1cccc(-c2nn[nH]n2)c1
33 | -1% | CCCCc1oc2ccc(NS(C)(=O)=O)cc2c1C(=O)c1ccc(OCCCN(CCCC)CCCC)cc1
34 | -8% | CO/N=C(\C(=O)N[C@@H]1C(=O)N2C(C(=O)O)=C(CSC(=O)c3ccco3)CS[C@H]12)c1csc(N)n1
35 | 1% | CCCCCCCCCCCC[n+]1ccc2ccccc2c1
36 | 19%&-2% | Nc1nc(Cl)nc2c1ncn2[C@H]1C[C@H](O)[C@@H](CO)O1
37 | -31%[inhibitor] | C[C@H](NC(CCc1ccccc1)C(=O)O)C(=O)N1CCC[C@H]1C(=O)O (stereo partly specified)
38 | -42%[inhibitor] | Cc1ncc(C[n+]2csc(CCOP(=O)(O)OP(=O)(O)O)c2C)c(N)n1
39 | ? | Cc1cc(=O)oc2cc(O)c(O)cc12
40 | 3% | COCCNC(=O)c1cn(C2CCN(C3CCCC3)CC2)nn1

3 records picked at random from those above, as already listed:
# | EPAC1 ag val | structure
15 | -12% | Cc1nc(C)c(CC(=O)N2CCOc3ccc(CN4CCN(c5ccccn5)CC4)cc3C2)s1
21 | 26%&3% | C1CCN2C[C@H]3C[C@H](CN4CCCCC34)C2C1 (stereo partly specified)
9 | -22% | O=C(O)CC(O)C(=O)O (stereo unspecified)

Other compounds.
# | EPAC1 ag val | structure
41 | 3% | CCC1CN(CCNC(=O)c2cn3cc(C)ccc3n2)Cc2cc(OC)ccc2O1 (stereo unspecified)
42 | 22% | COc1cc(-c2noc(C)c2C#CC2(N)CCCCC2)cc(OC)c1OC
43 | ? | c1cncc(-c2nc(-n3ccnc3)c3ccccc3n2)c1
44 | -21% | COc1cc2ncnc(Nc3ccc(F)c(Cl)c3)c2cc1OCCCN1CCOCC1
45 | 2% | CC(=O)/C(C)=N/O
46 | -21% | Cc1ccccc1-c1cc(Nc2ccccc2)ncn1
47 | 12% | CNc1cc(-c2ccccc2C(F)(F)F)ncn1
48 | ? | COc1ccc(OC)cc1

Structural class, those above with an aryl methoxy group (nine)
# | EPAC1 ag val | structure
1 | -72%[inhibitor] | COc1ccccc1CN1CC2(CCN(C(=O)c3ccncc3)CC2)C1
18 | -13% | COc1ccc(CN2CCOc3c(cc(-c4cccc(OC)n4)cc3OC)C2)c(O)c1
24 | -14% | COc1ccc(OC)c(C(=O)N2CCOc3ccc(C(C)(O)CN(C)C)cc3C2)c1 (stereo unspecified)
28 | -7% | COc1ccccc1CNc1cc(-c2ccc(C(=O)N(C)C)cc2)ncn1
31 | ? | COc1ccc(-c2nc3cnc(N4CCN(C)CC4)nc3n(Cc3cccs3)c2=O)cc1
41 | 3% | CCC1CN(CCNC(=O)c2cn3cc(C)ccc3n2)Cc2cc(OC)ccc2O1 (stereo unspecified)
42 | 22% | COc1cc(-c2noc(C)c2C#CC2(N)CCCCC2)cc(OC)c1OC
44 | -21% | COc1cc2ncnc(Nc3ccc(F)c(Cl)c3)c2cc1OCCCN1CCOCC1
48 | ? | COc1ccc(OC)cc1

The results go on.
# | EPAC1 ag val | structure
49 | -4% | Cc1cnc(CNc2ncncc2-c2cccnc2)cn1
50 | -52%[inhibitor] | CCc1ccc(C(=O)C[N+]2(C)CCOCC2)cc1
51 | 26%&25% | CC[C@@]1(O)C(=O)OCc2c1cc1n(c2=O)Cc2cc3cc(O)ccc3nc2-1
52 | -6%&-9% | CC(C)(C)NCC(O)COc1cccc2[nH]c(=O)[nH]c12 (stereo unspecified)
53 | 14% | COC(=O)c1cccc(C(=O)NCc2nc(-c3cccc(NC(=O)c4ccoc4C)c3)oc2C)c1
54 | -18% | COc1ccc(/C=C/C(=O)NCC2Cc3cccc(-c4nc(C)cnc4C)c3O2)cc1OC (stereo unspecified)
55 | ? | CCNc1ncc2ncc(=O)n(Cc3cccc(OC)c3)c2n1
56 | 4% | O=C1/C(=C/c2ccsc2)CC/C1=C\c1cccs1
57 | 100µM* | COCCn1c(=O)c(-c2cccs2)nc2cnc(Nc3ccccc3)nc21
58 | -44%[inhibitor] | Cc1sc(N)c(C(=O)c2cccc(C(F)(F)F)c2)c1C
59 | ? | Cc1noc(C)c1-c1ccc2ncnc(NCc3ccccc3)c2c1
60 | -8% | CN1CCN(c2nc(-c3ccc(N(C)C)cc3)nc3ccccc23)CC1
61 | -13% | c1ccc2[nH]ccc2c1
62 | -6%&6%&-16% | Nc1ccc(S(=O)(=O)Nc2ccnn2-c2ccccc2)cc1
63 | 112µM*! | CCN(CC)CCCC(C)Nc1c2ccc(Cl)cc2nc2ccc(OC)cc12 (stereo unspecified)
64 | -63%[inhibitor] | O=C(c1ccncc1)N1CCC[C@@]2(CCN(Cc3cc(C(F)(F)F)cc(C(F)(F)F)c3)C2)C1
65 | -9% | Cc1oc(-c2ccccc2NC(=O)c2ccccn2)nc1CNC(=O)c1ccc(Oc2ccccc2)o1
66 | -9%&-20%&-5% | CC1CNCCN1S(=O)(=O)c1cccc2cnccc12 (stereo unspecified)
67 | 7% | Cn1c(CCNC(=O)C2CC23CCN(C(=O)C2=CCCC2)CC3)nc2ccccc21 (stereo unspecified)
68 | 3%&2% | CC(=O)N=c1sc(S(N)(=O)=O)nn1C
69 | -214%[inhibitor] | CC(C)CCCC(C)C1CCC2C3CC(=O)[C@H]4CC(O)CC[C@]4(C)C3CC[C@@]12C (stereo partly specified)
70 | -5% | COC(=O)c1ccc(CN2CCC3(CCC(CNC(=O)c4ccccc4)O3)CC2)cc1 (stereo unspecified)
71 | -118%[inhibitor] | C=CCCCCCCCCCCCC(O)CC(O)COC(C)=O (stereo unspecified)
72 | 15% | CN(C)c1ncc2nc(-c3cc(F)cc(F)c3)c(=O)n(C)c2n1

Values by screen from the entries so far.
EPAC1 ag val for entries 68–72, in order: 3%&2%, -214%[inhibitor], -5%, -118%[inhibitor], 15%

Further results follow.
# | EPAC1 ag val | structure
73 | -5% | Cc1cc(-c2cc(F)cc3c2OC(CNC(=O)[C@@H]2CCC(=O)N2)C3)ccc1F (stereo partly specified)
74 | -30%[inhibitor] | CCNc1ncc2nc(-c3ccccc3)c(=O)n(CCC#N)c2n1
75 | -27% | COc1ncc2nc(-c3ccc(F)cc3)c(=O)n(-c3ccccc3)c2n1
76 | -6% | C=C1/C(=C\C=C2/CCC[C@]3(C)C([C@H](C)CCCC(C)(C)O)CC[C@@H]23)C[C@@H](O)C[C@@H]1O (stereo partly specified)
77 | 0% | CCN(CC)C1CCN(C(=O)c2cnn(-c3ncc4c(n3)-c3ccccc3CCC4)c2COC)C1 (stereo unspecified)
78 | ? | CSc1nc2cc(Oc3cccc(Cl)c3Cl)c(Cl)cc2[nH]1
79 | -80%[inhibitor] | CCCCCCCN1CCC(=O)N([C@H](CO)Cc2ccccc2)CC1
80 | ? | Cc1ccccc1N=C1Nc2ccccc2N[C@]12C[C@H]1CCCC(=O)N3CC[C@@H](C2)[C@@H]13
81 | -13% | CCOc1ccccc1OCCN[C@H](C)Cc1ccc(OC)c(S(N)(=O)=O)c1
82 | 12% | CN(C)C(=O)c1ccc(-c2cncnc2NCc2cccs2)cc1
83 | 12% | Cc1cnc(C)c(-c2cccc3c2OC(CNC(=O)C2(c4ccc(Cl)cc4)CC2)C3)n1 (stereo unspecified)
84 | -9% | O=C(NCCc1nnc2n1CCN(Cc1ccc3c(c1)CCO3)CC2)c1ccco1
85 | -47%[inhibitor] | O=C(C[n+]1cc(Br)cc2ccccc21)c1ccc(Cl)cc1
86 | -1% | Cc1cc(C(=O)O)ccc1[C@H](N)C(=O)O
87 | 1% | Cc1nn(C)cc1CNc1nc(C)c(-c2ccn(CC3COc4ccccc4O3)n2)s1 (stereo unspecified)
88 | -33%[inhibitor] | COc1ccc2[nH]cc(CCNc3ncncc3-c3ccc(C(=O)N(C)C)cc3)c2c1
89 | -14% | CC(=O)OCC(=O)[C@@]12N=C(C)O[C@@H]1C[C@H]1[C@@H]3CCC4=CC(=O)C=C[C@]4(C)[C@H]3[C@@H](O)C[C@@]12C
90 | -6% | CC(C)(CO)NC(=O)c1cnn(-c2nccc(-c3ccc4c(c3)OCO4)n2)c1C1CC1
91 | -19% | c1cncc(CNc2cc(-c3ccc4c(c3)OCO4)ncn2)c1
92 | 17% | Cc1cc2c(c(-c3nc4ccccc4s3)c1)OC(CNC(=O)CCc1cccnc1)C2 (stereo unspecified)
93 | 1% | O=C(NCC1Cc2cccc(-c3ncccn3)c2O1)C1CCOC1 (stereo unspecified)
94 | -6% | CN1C2CCCC1CC(NC(=O)c1nn(C)c3ccccc13)C2 (stereo unspecified)
95 | 2% | CN1CCCC(CNC(=O)c2cnn(-c3nccc(-c4cccs4)n3)c2C2CC2)C1 (stereo unspecified)
96 | -17% | Cc1cnc(CNc2ncnc3ccc(-c4cccc(NS(C)(=O)=O)c4)cc23)cn1
97 | 4% | COc1ccc(-n2c(=O)c(-c3ccc(Cl)cc3)nc3cnc(N4CCNCC4)nc32)cc1
98 | 6% | CCN(Cc1ccncc1)Cc1ccc2c(c1)CN(C(=O)c1ccccc1)CCO2
99 | 2% | Cc1ccc(CN2CCOc3ccc(CN4CCC(Oc5cccnc5)CC4)cc3C2)o1
100 | -2%&2% | CC1=C(C)C(=O)C(CCCCC#CCCCC#CCO)=C(C)C1=O
101 | 3% | CN1CCCN(C(=O)[C@@H]2C[C@@H](Sc3nc4ccccc4[nH]3)CN2Cc2ccc(-c3ccccc3)cc2)CC1
102 | -11% | COc1ccc(-c2nc3cnc(Nc4cccc(OC)c4)nc3n(C3CC3)c2=O)cc1
103 | -55%[inhibitor] | O=C(c1csnn1)N1CCC2(CC1)CN(c1ccccn1)C2
